VCAM-1 augmentation = enhancers of VCAM-1 display on endothelial cells, imaging, high-content imaging, pooled HUVEC, TNFa stimulus (AID 457) | calls only | 10,000 compounds, 0.2% hits | Pooled HUVEC, TNFa-induced VCAM-1 immunofluorescence imaging; hits of this screen are not shown here;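 active means a top-ranked rise in VCAM-1 staining upheld on image or statistical review; inactive means the rest, including candidates rejected on review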;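 further: compounds tested at 5 µM in the well; cells exposed to compound for 24 hours before fixing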
VCAM-1 down = inhibitors of TNFa-induced VCAM-1 surface display, cell-based, plate reader, pooled HUVEC, TNFa stimulus (AID 454); HUVEC TNFa-induced VCAM-1 surface immunofluorescence, plate reader; numbers were filed only for top-ranked candidate wells; inhibition, % at 5 µM; 10,000 compounds, 0.2% hits;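 active means compound among top-ranked inhibitors of TNF-induced VCAM-1 adhesion protein staining, with the hit upheld by image or statistical review; inactive means the rest, including hits rejected on review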;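 further: 0% = TNFa with vehicle and 100% = cells without TNFa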
FPRL1 ligand = human FPRL1 ligands by binding competition, primary screen, cell-based, FPR counter-screen, flow cytometry; N-formyl peptide receptor 2 (Homo sapiens), P25090; inhibition, %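 (tested at 6.7 µM)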; FPRL1-expressing cells, fluorescent ligand binding inhibition; 24,000 compounds, 0.3% hits;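 further: 0% = buffer alone and 100% = receptor blocker peptide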
Target sequence (P25090 whole entry, looked up): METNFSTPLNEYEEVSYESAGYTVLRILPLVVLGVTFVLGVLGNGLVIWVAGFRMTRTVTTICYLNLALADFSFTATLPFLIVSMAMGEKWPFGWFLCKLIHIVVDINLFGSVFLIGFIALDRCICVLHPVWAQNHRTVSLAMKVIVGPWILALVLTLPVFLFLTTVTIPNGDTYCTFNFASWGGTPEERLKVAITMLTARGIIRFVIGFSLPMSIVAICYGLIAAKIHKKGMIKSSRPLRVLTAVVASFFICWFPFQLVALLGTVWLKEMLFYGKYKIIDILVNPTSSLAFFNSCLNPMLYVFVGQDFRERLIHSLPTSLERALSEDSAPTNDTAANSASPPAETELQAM
VCAM-1 imaging = inhibitors of TNFa-induced VCAM-1 surface display, imaging, high-content imaging, pooled HUVEC, TNFa stimulus (AID 456); inhibition, % at 5 µM; hits with a dose series show IC50 in µM; HUVEC TNFa-induced VCAM-1 surface expression, immunofluorescence imaging; numbers were filed only for top-ranked candidate wells; 10,000 compounds, 0.2% hits;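 active means top tenth filtered wells with inhibition above zero that passed visual or statistical confirmation; inactive means the rest, including hits rejected on review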;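 further: 0% = stimulated vehicle wells and 100% = unstimulated cells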
FPR binder = human FPR ligands by binding competition, primary screen, cell-based, FPRL1 counter-screen, flow cytometry; fMet-Leu-Phe receptor (Homo sapiens), P21462; FPR-expressing cells, fluorescent ligand binding; inhibition, %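 (tested at 6.7 µM)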; 24,000 compounds, 0.74% hits; AID 440, 2006;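 further: 0% = buffer wells and 100% = receptor blocker peptide wells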
Target sequence (P21462 whole entry, looked up): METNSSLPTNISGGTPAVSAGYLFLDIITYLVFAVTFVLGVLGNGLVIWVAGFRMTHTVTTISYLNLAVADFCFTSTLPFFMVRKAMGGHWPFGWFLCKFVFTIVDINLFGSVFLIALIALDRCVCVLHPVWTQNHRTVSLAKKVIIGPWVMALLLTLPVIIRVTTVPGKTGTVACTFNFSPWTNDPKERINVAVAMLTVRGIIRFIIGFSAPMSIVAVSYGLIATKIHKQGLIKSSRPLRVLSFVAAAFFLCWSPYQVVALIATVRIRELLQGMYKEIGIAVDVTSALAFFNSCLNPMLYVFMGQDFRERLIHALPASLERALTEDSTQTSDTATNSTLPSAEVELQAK
Starred values were filed as active, the others as inactive; i = inactive; . = not tested or not shown.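 How the source made its calls, unless noted: active means mean above 30%; inconclusive means self-fluorescent; inactive means the rest.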 The list is partial; rates above refer to the full screens.

SMILES	VCAM-1 augmentation	VCAM-1 down	FPRL1 ligand	VCAM-1 imaging	FPR binder
NC(=O)CN1CCCN(S(=O)(=O)c2ccc(Br)cc2)CC1	.	.	2	.	-2
O=C(CN1CCN(Cc2ccccc2F)C1=O)NCCN1CCOCC1	.	.	0	.	3
Cc1cc(S(=O)(=O)NC2CCCCC2)c(C)s1	.	.	8	.	0
COc1ccc(-c2cnnn2-c2ccc(NC(=O)c3ccco3)cc2)cc1OC	.	.	14	.	3
Cc1sc(NC(=O)c2ccco2)c(CN2CCN(c3ccccn3)CC2)c1C	.	.	-8	.	5
COc1ccc(C2C=C(c3ccc(C)c(C)c3)Nc3ncnn32)c(OC)c1OC (stereo unspecified)	.	.	24	.	27
COc1cc(C(=O)Nc2cc(Cl)ccc2C)c(-n2cnnn2)cc1OC	i	i	5	i	11
CCCN(CCC)C(=O)Cn1ccc(=N)c2ccccc21	.	.	-12	.	-2
CCOc1ccc(-c2nc(C#N)c(N3CCCCCC3)o2)cc1	i	i	-1	i	1
Cc1ccc2[nH]c(=O)c(-c3noc(-c4ccncc4)n3)cc2c1	i	i	2	i	1
COc1cccc(OC)c1C(=O)Nc1ccccc1N1CCCC1	i	i	-6	i	-1
CCOC(=O)C(C)On1c(SC(C)C(=O)OCC)nc2ccccc2c1=O (stereo unspecified)	i	i	11	i	12
COc1ccccc1NC(=O)C1C2C=CC3(CN(Cc4cccnc4)C(=O)C13)O2 (stereo unspecified)	.	.	-4	.	-5
COc1cc(NC(=O)CN2C(=O)c3ccccc3S2(=O)=O)c(OC)cc1Cl	.	.	2	.	2
Cc1cccc(C)c1NC(=O)Cn1c(=O)n(CCCC(=O)NCc2ccco2)c(=O)c2sccc21	.	.	6	.	-1
Cn1c(Cc2ccccc2)nnc1SCC(=O)NC1CCCCC1	i	i	-3	i	2
COC(=O)c1ccc(C2C(C(=O)c3cc4ccccc4o3)=C(O)C(=O)N2CCCN(C)C)cc1 (stereo unspecified)	.	.	10	.	1
O=C(c1ccc(N2CCCC2=O)cc1)N1CCOCC1	.	.	5	.	-4
O=c1ccn(Cc2ccccc2Cl)cc1	i	i	-3	i	4
O=C(NC1CCCCC1)c1nn2c(C(F)(F)F)cc(-c3ccco3)nc2c1Br	.	.	7	.	0
COc1ccc(Br)cc1C1CC(=O)N2CN(C)CSC2=C1C#N (stereo unspecified)	.	.	2	.	-4
Cc1nc2ccccc2c(=O)n1NCc1cccs1	.	.	0	.	-1
CC(=O)C1=C(O)C(=O)N(c2cccc(C(=O)O)c2)C1c1ccc(F)cc1 (stereo unspecified)	.	.	0	.	-4
COC(=O)Cc1cc(=O)n(-c2ccccc2)[nH]1	i	i	1	i	8
Cc1cccc(C)c1NC1=NC2(CCCCC2)N=C(N)N1	.	.	1	.	1
O=C(NCCC1=CCCCC1)C1CCN(S(=O)(=O)N2CCOCC2)CC1	.	.	10	.	-1
COc1cccc(-c2cc(C(=O)Nc3c(C)nn(Cc4ccccc4C)c3C)no2)c1	.	.	-1	.	-2
CCC(C)OC(=O)C1=C(C)NC2=C(C(=O)C(C(=O)OC)C(C)C2)C1c1ccc(N(C)C)cc1 (stereo unspecified)	i	i	6	i	16
CCOC(=O)c1c(NC(=O)C2C3CCC(O3)C2C(=O)O)sc(C)c1-c1ccc(C)cc1 (stereo unspecified)	.	.	-4	.	46*
CCOc1ccc(OCC)c(NC(=O)CC2Oc3ccc(C)cc3NC2=O)c1 (stereo unspecified)	.	.	2	.	3
FC(F)(F)COc1nc(N2CCCCC2)nc(N2CCNCC2)n1	i	i	-10	i	-2
CCCn1c(SCC(=O)NC(=O)NCc2ccco2)n[nH]c1=O	i	i	5	i	-1
CC1CCCN(C(=O)C23CCC(C)(C(=O)C2)C3(C)C)C1 (stereo unspecified)	i	i	-4	i	-6
COc1ccccc1-c1cc(C(=O)Nc2ccccc2SC)no1	.	.	1	.	-1
Cn1c2ccccc2c2c(C(=O)NCC3CCCO3)cn(C3CCCC3)c(=O)c21 (stereo unspecified)	.	.	-2	.	8
COc1ccc(N2C(=O)CC(c3ccc(OC(C)C)cc3)C2=O)cc1 (stereo unspecified)	.	.	0	.	0
CCOC(=O)CSC1=C(C#N)C(c2ccccc2F)C(C(C)=O)=C(C)N1 (stereo unspecified)	.	.	-2	.	-9
CC(CCc1ccco1)NC(=O)CSc1cc(=O)n(C)c2ccccc12 (stereo unspecified)	.	.	4	.	-5
O=C(Nc1ccc(N2CCCC2=O)cc1)c1cccc(F)c1	i	i	-10	i	13
O=C(NCc1cccs1)C1CCCN(S(=O)(=O)c2cnc[nH]2)C1 (stereo unspecified)	.	.	7	.	-2
CCNc1oc(COc2cccc(C)c2)nc1C#N	i	i	1	i	0
CCOC(=O)N1CCC(N(CCOC)C(=O)Nc2ccc(Cl)c(Cl)c2)CC1	.	.	1	.	-1
CC1CN(Cc2nc3c(c(=O)[nH]c(=O)n3C)n2CCCc2ccccc2)CC(C)O1 (stereo unspecified)	.	.	-15	.	-5
CCOc1ccc(-c2cc(C(=O)NCCCN3CCN(CC)CC3)c3ccccc3n2)cc1	.	.	2	.	0
CCc1ccccc1N1C(=O)C2CC(C)=C(C)CC2C1=O (stereo unspecified)	i	i	-2	i	2
O=C1c2ccccc2C(O)N1Cc1ccccc1Cl (stereo unspecified)	.	.	-4	.	-1
O=C(CSCc1n[nH]c(=O)[nH]1)NCCOc1cccc(Oc2ccccc2)c1	i	i	5	i	-9
CC(C)(C)c1ccc(C(O)CCCN2CCC(C(O)(c3ccccc3)c3ccccc3)CC2)cc1 (stereo unspecified)	i	i	-5	i	-2
Cc1ccc(-c2nc(CS(=O)(=O)CC(=O)N3CCCCCC3)c(C)o2)cc1	.	.	-1	.	-7
O=S(=O)(NCc1ccco1)c1cccc2cccnc12	i	i	-4	i	-2
Cc1conc1NC(c1cccs1)c1ccc2cccnc2c1O (stereo unspecified)	.	.	10	.	6
COc1ccc(C2C(C(N)=O)=C(C)Nc3nc(-c4cccc(Cl)c4)nn32)cc1OC (stereo unspecified)	.	.	0	.	2
CCOC(=O)CNC(=O)C1c2cc(OC)c(OC)cc2C(=O)N(C)C1c1ccccc1F (stereo unspecified)	.	.	-2	.	4
COc1ccc(C2=NOC(C(=O)NCc3ccccc3)C2)cc1 (stereo unspecified)	.	.	1	.	2
CCSc1nc(-c2ccc(OC)cc2)ccc1C#N	i	i	-9	i	-3
NC(=O)C1(N2CCCCC2)CCN(C(=O)c2cccs2)CC1	.	.	-3	.	-6
Cc1ccc(S(=O)(=O)N2CCCC2C(=O)OCc2nc3ccccc3s2)cc1 (stereo unspecified)	i	i	-1	i	-2
O=C(C1=C(O)C(=O)N(CCCN2CCOCC2)C1c1ccccn1)c1cccs1 (stereo unspecified)	.	.	-7	.	-2
COc1ccccc1CCNC(=O)C1CCCO1 (stereo unspecified)	i	i	0	i	5
Cc1ccc(Cl)cc1N1CCN(C(=O)c2cn(C)c(=O)c3c2c2ccccc2n3C)CC1	i	91	0	i	6

Among those listed so far, 2 have a CF3 group.
SMILES	VCAM-1 augmentation	VCAM-1 down	FPRL1 ligand	VCAM-1 imaging	FPR binder
O=C(NC1CCCCC1)c1nn2c(C(F)(F)F)cc(-c3ccco3)nc2c1Br	.	.	7	.	0
FC(F)(F)COc1nc(N2CCCCC2)nc(N2CCNCC2)n1	i	i	-10	i	-2

The list continues:
SMILES	VCAM-1 augmentation	VCAM-1 down	FPRL1 ligand	VCAM-1 imaging	FPR binder
Cn1c(=O)n(C)c2cc(NC(=O)C(F)(F)F)ccc21	i	i	3	i	-7
O=C(CSc1nc2ccncc2[nH]1)Nc1ccccc1C(F)(F)F	.	.	3	.	9
Cc1c(C(=O)NCc2ccccn2)oc2ccccc12	i	i	-10	i	11
Cc1ccc(-c2nc(CS(=O)CC(=O)NCc3ccccn3)c(C)o2)cc1 (stereo unspecified)	.	.	0	.	-5
Cc1nc2ccccc2c2c1C(=O)N(CCC1=CCCCC1)C2=O	i	i	-1	i	1
O=C(Nc1ccc(F)cc1)N1CCn2c(nc3ccccc32)C1	.	.	1	.	5
Cc1cc(Nc2ccccc2F)n2nc(C)nc2n1	.	.	6	.	4
Cc1ccc(S(=O)(=O)N(CC(=O)N2CCOCC2)CC(=O)N2CCOCC2)cc1	i	i	2	i	0
CC(=O)c1ccc(NC(=O)CSc2nnc(-c3ccoc3C)n2Cc2ccccc2)cc1	i	i	2	i	-2
CC(C)OCCCn1c(=S)[nH]c2ncccc2c1=O	.	.	1	.	2
Cc1nc2ccccc2cc1C(=O)NCc1ccco1	i	i	1	i	-3
CCOC(=O)N1CCC(NC(=O)Cc2ccc(-n3c(=O)[nH]c4ccccc4c3=O)cc2)CC1	i	i	3	i	-2
Cc1ccccc1NC(=O)CSc1nc(N)c(C#N)c(-c2cccs2)c1C#N	i	i	-1	i	2
CC(C)(C)C1CCc2onc(C(=O)Nc3cccnc3)c2C1 (stereo unspecified)	.	.	2	.	0
Cn1c(=O)oc2cc(S(=O)(=O)N3CCN(Cc4ccc5c(c4)OCO5)CC3)ccc21	.	.	-1	.	0

4 records picked at random from the list so far, as already listed:
SMILES	VCAM-1 augmentation	VCAM-1 down	FPRL1 ligand	VCAM-1 imaging	FPR binder
O=C(c1ccc(N2CCCC2=O)cc1)N1CCOCC1	.	.	5	.	-4
O=C(CSCc1n[nH]c(=O)[nH]1)NCCOc1cccc(Oc2ccccc2)c1	i	i	5	i	-9
O=C(NCCC1=CCCCC1)C1CCN(S(=O)(=O)N2CCOCC2)CC1	.	.	10	.	-1
NC(=O)C1(N2CCCCC2)CCN(C(=O)c2cccs2)CC1	.	.	-3	.	-6

Continued.
SMILES	VCAM-1 augmentation	VCAM-1 down	FPRL1 ligand	VCAM-1 imaging	FPR binder
COc1ccc(-c2nc(SC)n(C)c(=O)c2C#N)cc1OC	.	.	-3	.	0
CSC1=NCCN1C(=O)c1cccc(Br)c1	.	.	-6	.	-3
Cc1cc(C)c(S(=O)(=O)Nc2cccc3nsnc23)c(C)c1	.	.	-9	.	2
CCn1c(=O)c(=O)n(CC)c2cc(S(=O)(=O)Nc3cccc(OC)c3)ccc21	.	.	7	.	-8
Cc1cc(=O)c2ccccc2[nH]1	.	.	-4	.	-2
O=C(CNCC1CCCO1)Nc1ccccc1-n1cccc1 (stereo unspecified)	i	i	-2	i	-13
CCCC1(C(=O)O)NC(c2cccc(OC)c2O)C2C(=O)N(c3ccccc3)C(=O)C21 (stereo unspecified)	.	.	-7	.	3
COc1cc(N=c2ssnc2Cl)cc(OC)c1OC	.	.	8	.	1
COc1ccc(-n2c(Cc3cccn3C)nnc2SCC(=O)NC2CCCCC2)cc1	.	.	-10	.	-3
CC1(C)CC(=O)C2=C(C1)NC(=O)CC2c1ccc(N(CCC#N)CCC#N)cc1 (stereo unspecified)	i	i	6	i	1
CCOc1cc(-c2cc(N)n[nH]2)cc(OCC)c1OCC	.	.	4	.	2
Brc1ccc2[nH]c3nc(SCCN4CCOCC4)nnc3c2c1	i	i	2	i	7
CCOCCCNC(=O)c1cn(C)c2ccc(S(=O)(=O)N(C)C3CCCCC3)cc2c1=O	.	.	7	.	9
Cc1ccc(C)c(-c2nc3cc(N)ccc3o2)c1	i	i	-1	i	-6
O=C(NCCc1ccccc1)c1cc(-c2ccco2)on1	i	i	3	i	1
CC(=O)Nc1nc2ccc(Br)cc2s1	.	.	-6	.	2
Cc1cc(NC(=O)Nc2cc(C)nn2-c2ccccc2)n(-c2ccccc2)n1	.	.	-1	.	10
CC(C)(C)c1ccccc1NC(=O)c1cccnc1	i	i	-3	i	2
C=CCc1ccccc1OCC(O)CNC(C)C (stereo unspecified)	i	i	0	i	-2
O=C(c1noc2c1CCCC2)N1CCOCC1	.	.	-1	.	-5
O=C(CC1CCS(=O)(=O)C1)Nc1ccc[nH]c1=O (stereo unspecified)	i	i	2	i	1
O=C(NCc1cccs1)C1CCN(S(=O)(=O)c2cccs2)CC1	i	i	5	i	-2
C#CC(C)(CC)NC(=O)Cn1nnc(-c2ccc(S(C)(=O)=O)cc2)n1 (stereo unspecified)	.	.	-2	.	-5
Cc1ccccc1-n1c(=O)cc(N2CCc3ccccc3C2)[nH]c1=O	.	.	1	.	-1
NC(=O)CN1CCN(C(=O)Nc2ccccc2)CC1	.	.	7	.	3
CC(C)CC(=O)Nc1ccccc1-c1nnn(CC(=O)N2CCOCC2)n1	i	i	-1	i	-7
CCCCNC(=O)c1sc2nc(C)cc(COC)c2c1-n1cccc1	.	.	3	.	7

High-throughput results as filed in PubChem.
